Bioassay records as filed in PubChem BioAssay.
2A Renilla = Primary qHTS Assay for Foot and Mouth Disease Virus Antivirals against NCGC Sytravon and CBC Compound Libraries: Renilla Luciferase Signal. HEK cells with a luciferase reporter of 2A StopGo recoding. Potency, µM (series often up to 57.5 µM), inactives show top-dose signal change, negative = less light. 120,000 compounds, 0.32% hits; active means well fitted falling curve with a large enough effect; inconclusive means small, poorly fitted or top-dose-only effect; inactive means no such curve, though single readings can be large or run the other way; note: nearly all actives have a fitted effect of over 55% in size; overnight with compound
2A firefly = Primary qHTS Assay for Foot and Mouth Disease Virus Antivirals against NCGC Sytravon and CBC Compound Libraries: Firefly Luciferase Signal | HEK cells with a luciferase reporter of 2A StopGo recoding | Potency, µM (titrated, usually from 57.5 µM), without a hit: top-dose signal change, negative = less light | 120,000 compounds, 0.23% hits | AID 1745856, 2022; active = well fitted falling curve with a large enough effect; inconclusive = small, poorly fitted or top-dose-only effect; inactive = no such curve, though single readings can be large or run the other way; note: nearly all actives have a fitted effect of over 60% in size; overnight with compound
* marks the source's active call; other numbers are inactive results; u = inconclusive; [ ] = remark or other dose. % is set by controls: 0 for no effect and ±100 for the full control effect; potency is the fitted concentration of half-maximal effect. Some of the compounds tested (hit frequency here may not be typical).

SMILES | 2A Renilla | 2A firefly
ON1C2CCCCC2N(O)C1c1ccco1 (centres undefined) | 9% | 19%
CC1CCN(Cc2cc(=O)oc3cc(-c4ccccc4)c(O)cc23)CC1 | 0% | 0%
COc1ccc2c(c1)cc(C(=O)NCCC(=O)Nc1ccc3c(c1)OCCO3)n2C | 0% | 12%
O=C(c1cccn1-c1nnc(N2CCCC2)s1)N1CCN(c2ccccc2)CC1 | 2% | -9%
N#Cc1cccc(COC(=O)c2ccccn2)c1 | 0% | 1%
CCOc1ccc(-c2noc(CSc3nnc(Cc4ccccc4)n3-c3cccc(C)c3)n2)cc1 | -6% | u
O=C(NCc1ccc2c(c1)CCN2C(=O)c1ccc(F)cc1)c1c(F)cccc1F | -7% | -16%
COc1ccc(NC(=O)CCc2c(C)c3ccc(O)c(C)c3oc2=O)c(OC)c1 | 22% | -11%
O=C(NC1CCN(S(=O)(=O)c2ccccc2Cl)CC1)C1CCCCC1 | -5% | -6%
Cc1c(CC(=O)NCc2ccco2)c(=O)oc2c(C)c(O)ccc12 | 44%[activator] | 42%[activator]
Cn1c(N2CCCCC2)nc2c1c(=O)n(Cc1ccccc1F)c(=O)n2C | -9% | -3%
COc1nc2cc(C)c(C)cc2nc1C(=O)Nc1cccc(Cl)c1 | -8% | -1%
Cc1c(-c2ccccc2)oc2c(C(=O)N3CCN(C(=O)c4ccccc4)CC3)cccc2c1=O | 8% | -7%
CCCOc1ccc(C(=O)OC(C)C(N)=O)cc1OCC (centres undefined) | -11% | 6%
O=C(NCC(c1ccco1)N1CCCCC1)c1nn(Cc2ccccc2)c(=O)c2ccccc12 (centres undefined) | 0% | 6%
NC(=O)c1c(NC(=O)c2noc3c2CCCC3)sc2c1CCCC2 | -3% | 95%[activator]
Cc1cccc2c(=O)cc(CSCC(=O)Nc3ccc(Cl)cc3)[nH]c12 | 9% | 0%
O=C(Cc1ccccc1)Nc1sc2c(c1C(=O)Nc1ccccc1Cl)CCCC2 | 199%[activator] | 154%[activator]
CCCOc1ccc(NC(=O)c2ccccc2Cl)c2cccnc12 | 4% | 13%
COc1ccc(CNC(=O)CN2C(=O)CC(c3ccc(C)c(C)c3)=Nc3ccccc32)cc1 | 4% | 112%[activator]
CCN(CC)CCCNc1ncnc2c1cnn2-c1ccc(C)c(C)c1 | -14% | 39%[activator]
O=C1/C(=C/c2cccc(F)c2)CSc2ccc(F)cc21 | 32%[activator] | 163%[activator]
Clc1cccc(N2CCN(c3nc4ccccc4n4cnnc34)CC2)c1 | -10% | -8%
O=S(=O)(NCc1ccccc1)c1ccccc1 | 147%[activator] | 10%
Cn1c(=O)c2c(ncn2CC(=O)Nc2ccc(F)cc2)n(C)c1=O | -8% | -9%
Later entries.
SMILES | 2A Renilla | 2A firefly
CCc1ccc(S(=O)(=O)c2nnn3c2nc(N2CCCC2)c2sccc23)cc1 | -13% | -7%
CN(c1ccc(F)cc1)S(=O)(=O)N1CCCC(C(=O)NCc2cccc(Br)c2)C1 (centres undefined) | u | u
O=C(COc1ccc2nc3n(c(=O)c2c1)CCCCC3)NC1CC1 | 20% | 25%
CN(Cc1cccc(Cl)c1)C(=O)C1CCN(c2ccc(C(F)(F)F)cn2)CC1 | -6%[1.06 µM] | u
N#Cc1c(N)n[nH]c1CCCCCNc1ncnc2c1cnn2-c1ccccc1 | 75%[activator] | 157%[activator]
Cc1ccccc1NC(=O)CSc1nc2c(oc3ccccc32)c(=O)n1-c1ccccc1F | -16% | u
COc1ccc(S(=O)(=O)Nc2cc3c(cc2N2CCOCC2)n(C)c(=O)n3C)cc1 | 51%[activator] | 32%[activator]
CCc1ccc(NC(=O)Cc2c(C)c3ccc(OC)c(OC)c3oc2=O)cc1 | -14% | -1%
O=C(NCC#Cc1cccc(C(F)(F)F)c1)C1CCCN(C(=O)c2ccc(Cl)cc2)C1 (centres undefined) | 10% | 14%
CCOc1ccc(CN(CCc2ccc3c(c2)OCO3)Cc2ccc(C)cc2)cc1 | 16% | -11%
COC(=O)COc1ccc2c(C)c(-c3ccc(Cl)cc3)c(=O)oc2c1 | -8% | 15%
Cc1ccc(NC(=O)c2cc(=O)c3cc(C)cc(C)c3o2)c(C)c1 | 0% | 17%
COc1cc(OC)c(C2=CCN(S(=O)(=O)N3CCCCC3C)CC2)c(OC)c1 (centres undefined) | u | u
CCN1CCN(c2oc(-c3ccc(S(=O)(=O)N(CC)CC)cc3)nc2C#N)CC1 | 13% | -2%
Cn1c(=O)c2c(ncn2CC(=O)NC(=O)NC2CCCC2)n(C)c1=O | 4% | 5%
CC(C)CCNC(=O)COC(=O)c1cc(-c2ccco2)nc2ccccc12 | -16% | -5%
COc1ccc(NC(=O)CN2CCN(c3nc(-c4ccco4)c4c(c3C#N)CCC4)CC2)cc1 | 1% | -6%
Cc1cccc(NC(=O)c2sc3nc4c(cc3c2N)CCCCCC4)c1C | -20% | 142%[activator]
Cc1cc(C)c(NC(=O)CSC2CCCC2)c(Cl)c1 | 45%[activator] | 158%[activator]
CC1Cc2ccccc2N1C(=O)CSc1ncc(C(F)(F)F)cc1Cl (centres undefined) | -6% | -14%
CCn1nc(C(=O)Nc2ccc(C)c(S(=O)(=O)N(C)C)c2)c2ccccc2c1=O | 20% | 31%
COc1ccc(Cn2c(CO)cnc2SCc2ccccc2)cc1 | 17% | 184%[activator]
OCCN(CCO)c1ncnc2c1cnn2-c1ccc(F)cc1 | -12% | 173%[activator]
CSc1nnnn1-c1ccc(C(=O)Nc2ccccc2F)cc1 | -4% | 138%[activator]
CCCCn1c(=O)n(CC(O)COc2cccc3ccccc23)c(=O)c2c1ncn2C1CCCC1 (centres undefined) | -12% | -12%

Entries above that have a furan ring, fused or not (6):
SMILES | 2A Renilla | 2A firefly
ON1C2CCCCC2N(O)C1c1ccco1 (centres undefined) | 9% | 19%
Cc1c(CC(=O)NCc2ccco2)c(=O)oc2c(C)c(O)ccc12 | 44%[activator] | 42%[activator]
O=C(NCC(c1ccco1)N1CCCCC1)c1nn(Cc2ccccc2)c(=O)c2ccccc12 (centres undefined) | 0% | 6%
Cc1ccccc1NC(=O)CSc1nc2c(oc3ccccc32)c(=O)n1-c1ccccc1F | -16% | u
CC(C)CCNC(=O)COC(=O)c1cc(-c2ccco2)nc2ccccc12 | -16% | -5%
COc1ccc(NC(=O)CN2CCN(c3nc(-c4ccco4)c4c(c3C#N)CCC4)CC2)cc1 | 1% | -6%

Later entries.
SMILES | 2A Renilla | 2A firefly
O=C(c1ccccc1)c1ccc2n1CCC2C(=O)Nc1ccc(C(F)(F)F)cc1 (centres undefined) | 4% | 4%
O=S(=O)(c1ccc(-n2cnnn2)cc1)N1CCN(c2cccc(Cl)c2)CC1 | 0% | 2%
COc1ccc(C(=O)Nc2ccc3nc4c(c(Nc5ccc(OC)c(OC)c5)c3c2)CCCC4)c(OC)c1 | -10% | -18%
CCCN1C=C(OC(=O)c2ccc(OC)cc2)c2ccccc2S1(=O)=O | 0% | 3%
COc1ccc(OC)c(NC(=O)C2=C(C)C(=O)OC23CCN(C(C)C)CC3)c1 | -2% | 14%
CCOC(=O)CNC(=O)NCC(=O)N1CCc2ccccc21 | 5% | 12%
CN/C(=C\[N+](=O)[O-])NCCSCc1csc(CN(C)C)n1 | -11% | -16%
CCOCCCN1C(=O)CN(C2CCCCCC2)C(=O)C1c1ccc(OCC)c(OC)c1 (centres undefined) | -1% | 55%[activator]
N#Cc1nc(-c2ccc(S(=O)(=O)N3CCOCC3)cc2)oc1N1CCN(Cc2ccccc2)CC1 | u | u
COCCNC(=O)CSc1nc(-c2ccc(F)cc2)[nH]c1-c1ccc(Cl)cc1 | 34%[activator] | -12%
Cc1nc(SCc2ccc(Cl)cc2)c(C#N)c(C)c1Cl | -7% | -3%
COc1cccc(CNC(=O)C2CCCN(S(=O)(=O)N(C)c3ccc(F)cc3)C2)c1OC (centres undefined) | u | u
Cc1cc(C(=O)COc2ncnc3ccccc23)c(C)n1C | 5% | 160%[activator]
CCOC(=O)C1CCCN(S(=O)(=O)c2ccc3c(c2)N(C)C(=O)CC(=O)N3C)C1 (centres undefined) | -2% | -3%
CC(=O)Nc1ccc(NS(=O)(=O)c2ccc(Cl)s2)cc1 | 0% | -11%
COc1ccc(OC)c(NC(=O)c2nc3ccccc3nc2N2CCCCC2)c1 | 19% | -7%
CCOc1ccc(NC(=O)Cn2c(Nc3ccc(F)c(C)c3)nc(C)cc2=O)cc1 | 5% | 26%
COc1ccc2c(c1)c(CC(=O)OCC(=O)O)c(C)n2C(=O)c1ccc(Cl)cc1 | -15% | -23%
COc1ccc(N2CCN(C(=O)c3cccn4c(=O)c5ccc(Cl)cc5nc34)CC2)cc1 | 1% | -4%
Cc1cccc(C(c2sc3nc(-c4ccco4)nn3c2O)N2CCOCC2)c1 (centres undefined) | 22% | -8%
O=CC(Cl)=C(Sc1ccc(Cl)cc1)Sc1ccc(Cl)cc1 | 1% | 14%
O=C(COc1nc2ccccc2nc1N1CCOCC1)Nc1ccc(F)cc1 | -2% | 8%
CCN(CC)C(=O)c1ccc2c(c1)N(Cc1c(F)cccc1Cl)C(=O)c1ccccc1S2 | 91%[activator] | -19%
O=C(Nc1noc2ccccc12)c1cccc(Cl)c1Cl | -12% | 177%[activator]
Cc1ccc(-c2nsc(NC(=O)c3oc4cc(C)c(Cl)cc4c3C)n2)cc1 | -15% | -19%
Remaining list, next part.
SMILES | 2A Renilla | 2A firefly
COc1ccc(NC(=O)Cn2c(=O)oc3cc(Cl)ccc32)c(OC)c1 | 10% | -13%
CC(=O)c1ccc(NC(=O)COc2ccccc2-c2nc(-c3ccccc3)no2)cc1 | -9% | -2%
O=C(NCc1ccc(-n2cccn2)cc1)c1cc(F)ccc1Br | 5% | 0%
COc1ccccc1C(=O)Nn1c(-c2ccc(F)cc2)nc2ccccc2c1=O | 10% | 17%
COc1ccc2c(c1)CCC/C2=N\OC(=O)c1cc(SC)ccc1Cl | -10% | 20%
CC(=O)Nc1ccc2nc(SCc3ccccc3)sc2c1 | 19% | 225%[activator]
O=C(Nc1ccc2oc(-c3cccc4c(Br)cccc34)nc2c1)c1cccc(Cl)c1 | -3% | -14%
Cc1ccc(C2=C(O)C(=O)N(Cc3ccccc3)C2c2cccc(F)c2)cc1 (centres undefined) | 8% | -1%
COc1ccc(C(=O)c2cn(Cc3ccc(F)cc3)c3ccc(C)cc3c2=O)cc1 | 14% | -28%
Cc1sc(N2CCCC2)nc1-c1ccc(NS(C)(=O)=O)cc1 | -14% | -1%
C/C=C/Cn1c(SCCCCC)nc2c1c(=O)[nH]c(=O)n2C | 10% | 18%
CC(C)c1noc(CN2CCN(c3oc(-c4ccco4)nc3C#N)CC2)n1 | 4% | -9%
Cc1ccc(Cn2cc(S(=O)(=O)c3cccc(C)c3)c(=O)c3cc(F)c(N4CCOCC4)cc32)cc1 | 31%[activator] | -3%
c1ccc(CNc2nc3ccccc3c3nc(-c4ccccc4)nn23)cc1 | -9% | -5%
Cc1nc(-c2cccs2)c(CC(=O)NC(C)c2cccc3ccccc23)s1 (centres undefined) | 5% | -16%
COc1cc2c(cc1OC)C(COc1ccc3c(C)cc(=O)oc3c1)N(C(=O)Cc1ccccc1)CC2 (centres undefined) | -2% | -8%
Cc1ccc2c(c1)cc(C(=O)Nc1ccccc1)n2C | 36%[activator] | 195%[activator]
CC(C)(C)C(=O)Nc1ccc(C(=O)Nc2ccc(CC(=O)O)cc2)cc1 | 4% | 9%
COc1cc(C(CC(=O)Nc2ccc(F)cc2F)N2Cc3ccccc3C2=O)cc(OC)c1OC (centres undefined) | 82%[activator] | 1%
COc1ccc(CCNC(=O)c2ccc3c(c2)N(Cc2ccccc2C)C(=O)c2ccccc2S3)cc1OC | -25% | u
CCc1cccc(NC(=O)CN(C)S(=O)(=O)c2ccc3[nH]c4c(c3c2)CCCC4)c1 | 6% | -5%
CCc1ccc(C2C(C(=O)N3CCCCC3)=C(C)NC3=C2C(=O)CC(C)(C)C3)cc1 (centres undefined) | 0% | -3%
Cc1ccccc1OCC(=O)NC1=NCCS1 | -3% | 141%[activator]
CCCC12CN(C(=O)c3ccccc3)CC(C)(CN(C(=O)c3ccccc3)C1)C2=O | -3% | -17%
O=C(NCCS(=O)(=O)N1CCN(c2ccccc2F)CC1)c1cccc(Br)c1 | -4% | -2%

Shown with two lines to a compound: part of the list above
Every second line gives: 2A Renilla | 2A firefly
Cc1ccc(C2=C(O)C(=O)N(Cc3ccccc3)C2c2cccc(F)c2)cc1 (centres undefined)
→ 8% | -1%
COc1ccc(C(=O)c2cn(Cc3ccc(F)cc3)c3ccc(C)cc3c2=O)cc1
→ 14% | -28%
Cc1sc(N2CCCC2)nc1-c1ccc(NS(C)(=O)=O)cc1
→ -14% | -1%
C/C=C/Cn1c(SCCCCC)nc2c1c(=O)[nH]c(=O)n2C
→ 10% | 18%
CC(C)c1noc(CN2CCN(c3oc(-c4ccco4)nc3C#N)CC2)n1
→ 4% | -9%

Continued.
SMILES | 2A Renilla | 2A firefly
O=C(NC1CC(=O)N(c2cccc(F)c2)C1)c1ccc(Br)o1 (centres undefined) | -11% | -17%
Cc1ccsc1C(=O)NCCSC1CCCC1 | 15% | 175%[activator]
Cc1onc(-c2c(F)cccc2Cl)c1C(=O)Nc1sc2c(c1C(N)=O)CCC2 | 10% | 2%
Fc1ccccc1-c1nnc(SCc2ccccc2Br)n1C1CC1 | -8%[1.06 µM] | -22%
CCC(C)NC(=O)C1=CC(c2cccs2)=NS(=O)(=O)N1C (centres undefined) | 26% | 25%
Cn1nc(C(=O)NCC2COc3ccccc3O2)c2ccccc2c1=O (centres undefined) | 0% | -2%
CC(Cc1ccccc1)NNC(=O)C(O)(Cc1ccccc1)Cc1ccccc1 (centres undefined) | 0% | 2%
COc1ccc(OC)c(CCNC(=O)c2ccc(N3C(=O)CCS3(=O)=O)cc2Cl)c1 | -11% | -3%
